AmpC nodet inh = Promiscuous and Specific Inhibitors of AmpC Beta-Lactamase (assay without detergent); P00811; 71,000 tested, 1.8% active; Potency, µM (titrated, usually from 28.7 µM), for the others: at the top dose activity change, negative = inhibition; AID 585, 2007; AmpC nitrocefin hydrolysis, absorbance 480 nm, no detergent; potencies from a single point are estimates; active = falling curve, for most hits resting on a single point; inconclusive = weak or doubtful change; inactive = flat or rising curve; note: % of control where 0% means no effect; about half of the hits show no inhibition at the top dose; a quarter of the inactives give rising signals
Target sequence (P00811 whole entry, looked up): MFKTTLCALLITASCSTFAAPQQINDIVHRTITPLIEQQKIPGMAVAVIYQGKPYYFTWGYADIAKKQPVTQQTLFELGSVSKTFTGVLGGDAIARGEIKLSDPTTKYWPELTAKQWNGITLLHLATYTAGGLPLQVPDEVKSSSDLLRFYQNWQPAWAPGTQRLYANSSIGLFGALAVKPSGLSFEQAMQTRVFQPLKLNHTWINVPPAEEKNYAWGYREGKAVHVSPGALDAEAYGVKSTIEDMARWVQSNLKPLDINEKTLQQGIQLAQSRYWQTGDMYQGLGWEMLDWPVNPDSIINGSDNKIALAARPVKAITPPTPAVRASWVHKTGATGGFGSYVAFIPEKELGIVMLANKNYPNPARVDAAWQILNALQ
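Enzyme, pH 7.0 phosphate. Compound titrations were pre-incubated with AmpC for 15 min at room temperature before nitrocefin (stock 800 uM) addition; product formation was recorded at 480 nm every 20 s for 4 min.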
An asterisk follows results filed as active; ? = inconclusive; & = joins results of further samples; [ ] = remark or other dose. Potency is the fitted concentration of half-maximal effect. A portion of the library; count on the stated rates, not on these rows.

SMILES	AmpC nodet inh
COc1cc(C2N=C(c3ccccc3)NO2)cc(Br)c1O (centres undefined)	-10%
CSCC[C@@H](C(=O)Nc1ccc2c(c1)OCCO2)N1Cc2ccccc2C1=O	4µM*[single pt active]
O=C(O)/C=C\c1cnc[nH]1	-3%
CCNc1nc(NCC)n2c(SCc3ccc(F)cc3)nnc2n1	-2%
CCC(=O)Nc1cc(C)c(NC(=O)C23CC4CC(CC(C4)C2)C3)cn1	31%
CCOC(=O)c1c(C)c(C(=O)NCCCN2CCCC2=O)c(C)n1CC	9%
O=C(Oc1cccc(-n2cnnn2)c1)c1sc2ccccc2c1Cl	13µM*[single pt active]
CCC1CCCCN1Cc1nc2c(c(=O)n(C)c(=O)n2C)n1Cc1ccccc1 (centres undefined)	-7%
COc1cccc(-c2cc(C(=O)Nc3cnn(Cc4ccc(F)cc4)c3)no2)c1	-12%
COCCn1nnnc1C(c1cc(OC)ccc1OC)N1CCc2ccccc2C1 (centres undefined)	85%
Cn1c(=O)c2[nH]c(CSCc3ccccc3)nc2n(C)c1=O	-5%[5.75 µM]
CCn1c(SCC(=O)c2ccc(NS(=O)(=O)c3ccccc3)cc2)nnc1-c1cccs1	10%
Cc1ccc2oc(=O)c3cnn(CC(=O)N4CCN(c5ccccn5)CC4)c3c2c1	25%
CCOc1ccc(/C(O)=C2/C(=O)C(=O)N(Cc3cccnc3)C2c2ccc(N(C)C)cc2)c(C)c1 (centres undefined)	-2%
CC(=O)N1CCCc2cc(S(=O)(=O)N(C)CCC#N)ccc21	-2%
COc1ccc2nc(/N=C\N(C)C)sc2c1	-12%
O=C(NCC(c1cccnc1)N1CCOCC1)Oc1ccccc1 (centres undefined)	2%
CC(C)Sc1nc2c(cnn2-c2ccccc2)c(=O)[nH]1	-16%
O=C1CC2(CCCCC2)Oc2ccc(O)cc21	-10%
O=C(c1cnccn1)N1CCC2(CCCN(Cc3ccncc3)C2)CC1	28%
O=C(Nc1ccc2c(c1)oc1ccccc12)c1ccncc1	-5%
Cc1cc(-n2nc(C)cc2C)n2ncc(-c3ccccc3)c2n1	25%
COCCNC(=O)c1ccc(CS(=O)(=O)c2ccc(C)cc2)o1	11%
CN(C)c1ccc(C2C3C(=O)NC(=O)C3ON2c2ccc(Cl)cc2)cc1 (centres undefined)	35%

Entries from the list above containing an aryl thioether with sulfur outside any ring, in the order listed:
SMILES	AmpC nodet inh
CCNc1nc(NCC)n2c(SCc3ccc(F)cc3)nnc2n1	-2%
CCn1c(SCC(=O)c2ccc(NS(=O)(=O)c3ccccc3)cc2)nnc1-c1cccs1	10%
CC(C)Sc1nc2c(cnn2-c2ccccc2)c(=O)[nH]1	-16%

(further entries)
SMILES	AmpC nodet inh
Cc1ccc(-c2cc(C(=O)NCc3ccco3)no2)cc1	1%
CCCC(c1nnnn1Cc1ccccc1)N1CCC(C(N)=O)CC1 (centres undefined)	28%
CCOC(=O)c1cc2ccccc2nc1C	8%
CCCCn1c(N)c(C(=O)OCC2CCCO2)c2nc3ccccc3nc21 (centres undefined)	75%
CN(C)Cc1nc2c([nH]1)c(=O)n(C)c(=O)n2C	-5%
CN(C)S(=O)(=O)N1CCN(C(=O)c2ccccc2Cl)CC1	-2%
CC(C)=CCC/C(C)=C/CN(CC(C)O)CC(C)O (centres undefined)	-1%
COc1cccc2sc(Nc3nnc(-c4cccs4)o3)nc12	82%
Cc1cc(C)n(-c2nncn2/N=C/c2ccccc2F)n1	2%
Cc1ccc2c(c1)cc(C)c1nnc(SCC(=O)NCc3ccco3)n12	100%
COc1cc(C(c2nnnn2C(C)(C)C)N2CCN(c3nc4ccccc4s3)CC2)ccc1O (centres undefined)	93%
Cc1nc2cnc(Oc3ccccc3)nc2n(Cc2cccs2)c1=O	87%
Cc1cc(NC(=O)c2oc3ccccc3c2C)ccc1-n1cnnn1	44%
Oc1cc2c(c(Cl)c1O)CCNC[C@H]2c1ccccc1	-1%&-10%
CCOC(=O)N1CCC(Nc2c(N3CCN(c4cccc(C(F)(F)F)c4)CC3)c(=O)c2=O)CC1	116%
COCc1cc(C)nc2sc(C(=O)OC(C)C)c(N)c12	3%
Cc1ccc(C(=O)O)c(C(=O)Nc2nc(C)cs2)c1	0%
O=C(NCCc1ccccn1)c1ccc(S(=O)(=O)N2CCCCCC2)cc1	10%
CCc1nc2ccccc2c(=O)n1NC(=O)c1c(O)c2ccccc2[nH]c1=O	-12%
C/C(N)=C(/C#N)C(=O)CSc1nnnn1-c1ccc(C)cc1C	4%
O=C(CSc1ccc(Cl)cc1)c1ccco1	?
COCc1nn2c(N)c(C#N)cnc2c1-c1ccccc1	17%
CCOc1ccc(-c2n[nH]c(C)c2Oc2ccccc2OC)c(O)c1	-7%
O=S(=O)(Nc1ccc2c(c1)OCCO2)c1cccs1	-8%
NC(N)=NC(N)=Nc1cccc(Cl)c1	3%&0%
CC(C)CNS(=O)(=O)c1ccc(CCC(=O)N2CCN(Cc3ccccc3)CC2)cc1	87%
COC(=O)c1sccc1NC(=O)c1ccoc1C	18%
CC(=O)Nc1ccc(S(=O)(=O)NCC2CCC(C(=O)N3CCN(c4ccccn4)CC3)CC2)cc1 (centres undefined)	68%
CCN=C(Nc1cccc(F)c1)SC1CC(=O)N(c2ccc(OC)cc2)C1=O (centres undefined)	31%
CCN1CCN(S(=O)(=O)c2cc(OC)ccc2OC)CC1	-13%
N[C@@H](C(=O)O)c1ccc(C(=O)O)c(C(=O)O)c1	3%&5%&4%
O=C(O)CCc1ccc(-c2cccs2)n1NC(=O)c1ccccc1Br	-12%
COc1cc(OC)c(NC(=O)CCc2nc(-c3cccs3)no2)cc1Cl	17%
COc1ccc(-n2c(=O)c(C)nc3cnc(N4CCOCC4)nc32)cc1	35%
CCn1c(=O)n(CC(=O)N2CCN(c3ccccc3F)CC2)c(=O)c2ccccc21	58%
COc1ccc(/C(O)=C2/C(=O)C(=O)N(CCN(C)C)C2c2ccc(OC)c(OC)c2)c(C)c1 (centres undefined)	-5%
COc1ccc(CNC(=O)c2noc3c2CCCCC3)cc1	5%
CCOC(=O)c1cnc(-n2nc(C)cc2C)nc1NCc1ccc2c(c1)OCO2	1%
CCS(=O)(=O)N1CCN(Cc2nc3ccccc3c(=O)[nH]2)CC1	-5%
COc1ccc(N=C(C)c2c(O)n(C3CCCCC3)c(=O)[nH]c2=O)c(OC)c1	24%
O=C(CN1CCOCC1)N1CCCc2c1c(=O)oc1ccc(OCc3ccccc3)cc21	135%
N#Cc1ccc(Sc2nc3ccccc3[nH]2)cc1C#N	-15%
Clc1ccc(Cc2nnc(-c3ccccc3Br)o2)cc1	16%
CCOC(=O)N1CCC(N2Cc3cccc(C(=O)NCc4ccc(C)cc4)c3C2=O)CC1	29%
CCOc1cccc(NC(=O)CC#N)c1	-8%
Cc1nn2c(N3CCCC3)cc(C(C)C)nc2c1-c1ccccc1	21%
Cc1ccccc1-n1c(C)nnc1SCC(=O)NCC1CCCO1 (centres undefined)	-7%
COC(=O)C1=C(C)NC(=O)C1(Nc1nccs1)C(F)(F)F (centres undefined)	-15%

4 of the compounds above, bar-delimited:
mol | AmpC nodet inh
O=C(CN1CCOCC1)N1CCCc2c1c(=O)oc1ccc(OCc3ccccc3)cc21 | 135%
CCS(=O)(=O)N1CCN(Cc2nc3ccccc3c(=O)[nH]2)CC1 | -5%
N#Cc1ccc(Sc2nc3ccccc3[nH]2)cc1C#N | -15%
COc1ccc(N=C(C)c2c(O)n(C3CCCCC3)c(=O)[nH]c2=O)c(OC)c1 | 24%

Next results follow:
SMILES	AmpC nodet inh
O=C(Cn1nnc(-c2ccccc2)n1)NCc1ccc2c(c1)OCO2	-7%
COc1ccc(-c2nnc(SCC(=O)OC3CCCCC3)o2)cc1OC	104%
COc1ccc(NC(=O)C2CCC(C)(C(=O)O)C2(C)C)cc1 (centres undefined)	6%
CC(C)[C@@H](CC(=O)N[C@@H]1CCCC[C@H]1C(=O)N[C@H](CC(=O)N[C@@H](CCC(=O)O)CC(=O)O)Cc1ccccc1)NC(=O)C[C@H](Cc1c[nH]c2ccccc12)NC(=O)[C@@H]1CNCC[C@H]1N	132%
CCOC(=O)CCCCC(=O)c1[nH]c(=O)[nH]c1CSc1nc(-c2ccccc2)c(C#N)c(=O)[nH]1	-1%
Cc1cc(=O)n2nc(N3CCC(C(=O)NCc4cccnc4)CC3)sc2n1	9%
CCOc1ccccc1OCC(=O)Nc1nnc(COC)s1	0%
COc1ccc2c(c1)-c1nc(NC(=O)c3ccco3)sc1CC2	44%
CCOCCCNC(=O)c1ccccc1SCC	20%
CC(=O)c1c(N2CCCCC2)nc(=O)n(-c2ccccc2)c1C	-3%
O=C(OCC(=O)N1CCOCC1)c1ccccc1SCC(=O)N1CCCC1	8%
CN(C)c1ccc(-c2nnc(-c3ccc(S(=O)(=O)C(F)F)cc3)o2)cc1	6%
CCCCNC(=O)CSc1nc2ccccc2c(=O)n1C1CCCC1	32%
COc1cccc(-c2cncnc2NCc2cnc(C)cn2)c1	-19%
Cn1c(=O)c2ccccc2n(Cc2ccccc2F)c1=O	2%
COC(=O)CSc1nc2c(c(-c3ccco3)c1C#N)CCCC2	-11%
CCN1CCN(c2ncc(C(=O)Nc3cc(Cl)c(OC)cc3OC)c3ccccc23)CC1	149%
Cc1cc(N2C(=O)CC(N3CCC(n4c(=O)[nH]c5ccccc54)CC3)C2=O)no1 (centres undefined)	5%
C=CCn1c(SCC(=O)Nc2ccccc2C)nnc1-c1ccncc1	-2%
Cn1c(Cc2ccccc2)nnc1SCC(=O)Nc1ccccc1N1CCOCC1	45%
CC1(c2ccccc2)NC(=O)N(CCN2C(=O)c3ccccc3C2=O)C1=O (centres undefined)	2%
Cc1ccc2cccc(SCC(=O)N3CCOCC3)c2n1	3%
CCCCCC(C)n1[nH]c(=O)c2c(C)cc(C)nc21 (centres undefined)	18%
Cc1onc(-c2c(Cl)cccc2Cl)c1C(=O)Nc1ccc2c(c1)OCCO2	-3%

Rewritten bar-delimited: 6 of the compounds above.
SMILES | AmpC nodet inh
COc1ccc(NC(=O)C2CCC(C)(C(=O)O)C2(C)C)cc1 (centres undefined) | 6%
CCOC(=O)N1CCC(N2Cc3cccc(C(=O)NCc4ccc(C)cc4)c3C2=O)CC1 | 29%
COc1cc(C2N=C(c3ccccc3)NO2)cc(Br)c1O (centres undefined) | -10%
CC(C)CNS(=O)(=O)c1ccc(CCC(=O)N2CCN(Cc3ccccc3)CC2)cc1 | 87%
N#Cc1ccc(Sc2nc3ccccc3[nH]2)cc1C#N | -15%
CC(C)Sc1nc2c(cnn2-c2ccccc2)c(=O)[nH]1 | -16%

Additional records follow:
SMILES	AmpC nodet inh
CCOc1ccc(Cc2nccc3cc(OCC)c(OCC)cc23)cc1OCC	71%[12.8 µM]
COCCCn1c(=N)c(C(=O)NCC2CCCO2)cc2c(=O)n3cccc(C)c3nc21 (centres undefined)	10%
O=C(CCCn1c(=O)c2sccc2n(Cc2ccc(F)cc2)c1=O)NCc1ccco1	29%
O=C(Nc1ccc(Cl)cc1)Nc1ccc(N2CCOCC2)cc1	-5%
O=C(COc1ccc(Br)cc1)N1CCCCCC1	25%
CS(=O)(=O)Nc1ccc2c(c1)nc1n2CCOC1	3%
Cc1cc(C)c2cc(CN(CC3CCCO3)C(=O)NC3CCCCC3)c(=O)[nH]c2c1 (centres undefined)	94%
CC(=O)Nc1ccc(S(=O)(=O)N2CCN(CC(=O)NC3CCCC3)CC2)cc1	17%
CC1(C)CNC(=O)C=C(c2ccccc2)C1	-13%
CCOC(=O)N1CCC(NC(=O)CN2C(=O)CCSc3ccccc32)CC1	4µM*[single pt active]
Brc1ccc(C2=Nn3c(nnc3-c3cccnc3)SC2)s1	0%
COc1cc(C2CC(=O)NC3=C2C(=O)CC(C)(C)C3)ccc1O (centres undefined)	1%
CCOC(=O)C1C(C#N)=C(N)OC(C)=C1c1ccncc1 (centres undefined)	-11%
O=P(O)(O)c1ccccc1OCCCCCOc1ccccc1P(=O)(O)O	-20%
C=C(C)C(C)(C#CCN1CCCC1)OC(C)=O (centres undefined)	-4%
O=C(COc1ccc(Cl)cc1)NCc1nnc(SCC(=O)NCCc2ccccc2)o1	10%
CCOc1ccc(NC(=O)Nc2cc(C)ccc2OC)cc1	-12%
CC(C)(C)SCCNC(=O)COc1ccccc1	19%
COc1ccccc1CNC(=O)c1cc2c(=O)n(C)c3ccccc3c2n1C	4µM*[single pt active]
Cc1c(Br)cc(C(=O)N2CCN(CCO)CC2)c(C)c1C	13%
N#CCSc1nc2ccccc2c(=O)n1CCC(=O)NC1CCCCC1	0%
COc1nc(NCCc2ccc(OC)c(OC)c2)nc(OC)n1	23%
N#C/C(=C(/O)CN1CCOCC1)c1nc(-c2ccccc2)cs1	-7%
Cc1cccn2c(=O)c3cc(C(=O)NC4CCCC4)c(=N)n(C4CCCC4)c3nc12	72%
COc1cc(-c2nnc(SCC(=O)c3cc(C)n(CC4CCCO4)c3C)o2)cc(OC)c1OC (centres undefined)	128%
CCOC(=O)COc1ccc2nsnc2c1	-2%
CCCCCCCCCCCC1=C(O)C(=O)C=C(O)C1=O	4µM*
O=C(CN1C(=O)c2ccccc2S1(=O)=O)N1CCN(c2ccc(F)cc2)CC1	38%
Cc1ccc(-c2ccc(CCC(=O)O)n2NC(=O)c2cccs2)cc1	-15%
CN1CCCN(CC(O)COCc2cccs2)CC1 (centres undefined)	9%
Cn1nnnc1SCC(=O)c1cccs1	-1%
CCCCCCNC(=O)CCNC(=O)c1cc(OC)c(OC)c(OC)c1	31%
CCN(C1CCS(=O)(=O)C1)S(=O)(=O)c1cccs1 (centres undefined)	4%
COCCN1CCn2c(nc3cc(NC(=O)NC4CCCCC4)ccc32)C1	36%
N[C@@H](CSC1c2ccccc2-c2ccccc21)C(=O)O	2%[5.75 µM]
COC(=O)C1=C(N)Oc2cc(C)[nH]c(=O)c2C1c1cc(OC)c(OC)c(OC)c1 (centres undefined)	11%
